High-throughput results (PubChem)
VDR inh: blocks the human vitamin D receptor | P11473 | 400,000 tested, 0.93% active | VDR-SRC2-3 peptide fluorescence polarization, 2 h | Potency, µM, without a hit: max response, negative = inhibition, hits mostly inhibitors; active = well fitted inhibition curve with a large enough effect; inconclusive = small, poorly fitted or top-dose-only effect, or another doubt; inactive = no such curve, though single readings can be large or run the other way; note: series mostly up to about 120 µM
Target sequence (P11473 whole entry, looked up): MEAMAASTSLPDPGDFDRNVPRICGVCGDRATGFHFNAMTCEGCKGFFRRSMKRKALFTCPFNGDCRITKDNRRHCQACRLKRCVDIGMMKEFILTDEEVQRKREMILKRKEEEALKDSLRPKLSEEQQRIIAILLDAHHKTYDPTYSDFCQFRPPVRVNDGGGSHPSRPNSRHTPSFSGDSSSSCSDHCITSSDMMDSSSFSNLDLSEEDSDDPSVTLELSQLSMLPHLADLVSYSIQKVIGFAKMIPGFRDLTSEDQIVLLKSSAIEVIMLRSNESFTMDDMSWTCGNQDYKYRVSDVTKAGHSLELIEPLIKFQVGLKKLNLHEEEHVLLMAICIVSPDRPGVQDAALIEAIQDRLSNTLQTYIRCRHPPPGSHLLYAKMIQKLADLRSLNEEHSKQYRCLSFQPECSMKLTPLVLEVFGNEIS
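FP read-out; VDR + SRC2-3 coactivator peptide; 23 nl compound by pintool; 2 h RT incubation; reagents held at 4 deg C, protected from light.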
An asterisk follows results filed as active; ? = inconclusive; & = joins results of further samples. % is set by controls: 0 for no effect and ±100 for the full control effect; potency is the fitted concentration of half-maximal effect.

VDR inh	mol
-1%	O=C(Nc1ccccn1)C1COc2ccccc2O1 (stereo unspecified)
-17%	O=C(Nc1cccc(F)c1)N1CCCC2(CCN(C(=O)c3cc(C(F)(F)F)cc(C(F)(F)F)c3)CC2)C1
9%	O=C(Nc1ccc(CSc2ccccc2)cc1)c1ccccc1
5%	N#Cc1ccc2ccn(CC(=O)NCc3ccco3)c2c1
4%	CC(C)(/C=N/O)/[N+]([O-])=C/c1ccccc1
5%	O=C(c1ccc(Cl)cc1)C1CCN(Cc2ccccc2)CC1
3%	CCc1nc(NCCCN2CCOCC2)c2oc3ccccc3c2n1
-18%	CC1=C(N2CCOCC2)CCC1=O
0%	Cn1ccc2cc(-c3csc(N4CCC(C(N)=O)CC4)n3)ccc21
-22%	NC(=O)c1cc[n+](CC2=C(C(=O)O)N3C(=O)[C@@H](NC(=O)C(c4ccccc4)S(=O)(=O)[O-])[C@H]3SC2)cc1 (stereo partly specified)
6%	CC(=O)C[C@H](O)CC(=O)[C@H]1OC(=O)CCCCCCCc2ccccc21
-7%	CCOc1ccccc1NC(=O)CSC1=Nc2ccccc2C2=NC(CC(=O)NCc3ccc4c(c3)OCO4)C(=O)N12 (stereo unspecified)

(cont.)
VDR inh	mol
9%	CCOC(=O)N1CCN(C(=O)COc2ccccc2[N+](=O)[O-])CC1
-2%	CC(=O)N1CCN(C(=O)c2ccc(Cl)c(NC(=O)c3cccs3)c2)CC1
14%	O=C(Cn1cnc([N+](=O)[O-])n1)N/N=C/c1ccc(O)cc1O
-3%	CC12CN(Cc3ccccc3)CC(C)(CN(Cc3ccccc3)C1)C2=NO
13%	CC(C)(C)NC(=O)c1ccnc(C(C)(C)C)c1
-21%	COc1ccc2nc3sc(C(=O)N4CCN(c5ccc(F)cc5)CC4)cc3cc2c1
7%	CCN(CC(=O)Nc1ccccc1C(F)(F)F)C(=O)CCOc1ccccc1C
-5%	Cc1ccc(NS(=O)(=O)c2ccc(C(=O)NCCN3CCOCC3)cc2)cc1
-2%	CCCCCOc1ccc(C(=O)NCC2(c3ccccc3)CCOCC2)cc1
-12%	Cc1ccc(-c2nnn3c2nc(NCc2ccc4c(c2)OCO4)c2ccccc23)cc1
8%	COCCn1c(SCC(=O)N2CCCCCC2)nnc1-c1ccco1
8%	Cc1ccc2c(c1)C(=O)N1[C@H]3c4cc(C)ccc4OC[C@@H]3[C@H](c3ccccc3)[C@]1(C)C(=O)N2

Going on with the list.
VDR inh	mol
1%	CCC(CC)CN1C(Nc2ccccc2)=NC[C@@H]1CC(C)C
-12%	CC(C(=O)N1CCN(C2c3ccccc3-c3ccccc32)CC1)N1C(=O)c2ccccc2C1=O (stereo unspecified)
-1%	Nc1cc(SCc2ccc(Cl)cc2Cl)ncn1
-20%	O=C(N/C(=C\c1ccc2c(c1)OCO2)C(=O)N1CCOCC1)c1ccccc1Br
28%	CCOC(=O)N1CCC(Nc2c(Nc3cccc(CC)c3)c(=O)c2=O)CC1
4%	CNC(=O)COc1ccc2oc3c(c2c1)CCCC3
-2%	CCn1c(C2CC(=O)N(c3ccc(C)c(C)c3)C2)nc2ccccc21 (stereo unspecified)
-10%	CCOC(=O)c1ccccc1NC(=O)CCc1c(C)nc2ncnn2c1C
-23%	COC(=O)c1cc(CNC(=O)Cc2ccsc2)ccc1OC
2%	COc1ccc(C)cc1Nc1n[n+](-c2ccccc2)c(-c2ccc(NC(C)=O)cc2)s1
-3%	CCC(=O)NC(=S)NNC(=O)c1ccc([N+](=O)[O-])cc1
8%	Cc1cc(C)cc(NC(=O)CN(C)S(=O)(=O)c2cccc3nsnc23)c1

The list goes on:
VDR inh	mol
4%	COc1cccc(/C=N/Nc2cc(-n3nc(C)cc3-c3ccccc3)ncn2)c1O
-11%	O=C(c1ccccc1Br)N1CCN(c2ncccn2)CC1
?	c1ccc(CN2CCC(N=C3NN=C(c4ccc5c(c4)OCCO5)CS3)CC2)cc1
0%	COC(=O)C1=C(C)Nc2ncnn2C1c1ccc(OC(=O)c2ccccc2)cc1 (stereo unspecified)
40µM*	Nc1nc2cc(S(=O)(=O)N3CCOCC3)ccc2o1
21%	C/C(CC(=O)Nc1ccc2c(c1)OCCO2)=N\NC(=O)COc1ccc(Cl)c(C)c1
12%	O=C(C1CCCO1)N1CCN(C(=S)Nc2ccccc2Cl)CC1 (stereo unspecified)
-7%	O=C(Nc1ccc2nn(-c3ccccc3)nc2c1)c1ccco1
0%	NC(=S)N/N=C1/CCSc2ccc3ccccc3c21
-9%	N#CCC(=O)Nc1ccc(C(=O)OCC(=O)Nc2ccc3ccccc3c2)cc1
3%	C=CCc1ccccc1OCC(=O)N/N=C/c1ccc(OC(C)=O)cc1OC(C)=O
12%	O=C(C1CCN(S(=O)(=O)c2cccc3nonc23)CC1)N1CCN(c2cccc(Cl)c2)CC1

Other results:
VDR inh	mol
-5%	CCCCCCCCCCCC(=O)O[C@H](CC(=O)O)C[N+](C)(C)C
-2%	O=C(O)CCC(=O)c1ccc2c(c1)CCCC2
4%	Cc1nc2ncnn2c(C)c1CCC(=O)N1CCOCC1
-11%	C=CCC(NCCCO)c1cccc(OC)c1OC (stereo unspecified)
-4%	C/C(Cl)=C/Cc1c(C)[nH]c2c(ccc3ccccc32)c1=O
-25%	COc1ccc(CNS(=O)(=O)c2ccc(F)c(C(=O)Nc3ccccc3OC)c2)cc1
-11%	O=S(=O)(c1ccccc1)N1CCC(=NO)CC1
6%	NC(=O)C1(Nc2ccc(-c3ccccc3)cc2)CCCC1
6%	CCc1ccccc1NC(=O)C1CCCN(c2nccc(C)n2)C1 (stereo unspecified)
-2%	CCn1ncc(Cl)c1C(=O)Nc1cc([N+](=O)[O-])ccc1OC
11%	CC(C)C(=O)O/N=C(\N)c1ccccn1
6%	O=C(COC(=O)c1cccc(S(=O)(=O)N2CCOCC2)c1)Nc1ccc(Cl)cn1

The listing continues.
VDR inh	mol
-7%	Cc1cc(C)n(CC(O)Cn2c3ccc(Cl)cc3c3cc(Cl)ccc32)c(=O)n1 (stereo unspecified)
-17%	CC1(c2nnc(-c3cccc(Cl)c3)o2)CC(c2ccc(F)cc2)=NO1 (stereo unspecified)
-16%	O=C(OCc1nnc(-c2ccccc2)o1)C12CC3CC(CC(Br)(C3)C1)C2
11%	O=c1c(-c2ccccc2)c(O)c2cccc3c2n1CCC3
-11%	O=C(NCCN1CCCCC1)c1ccc(Oc2cc(Cl)cc(Cl)c2)o1
3%	CCOc1ccc(C(=O)c2oc3ccccc3c2NC(=O)c2cc(-c3ccccc3)on2)cc1
4%	CN(C)Cc1c(O)ccc2occ(C(O)c3ccccc3)c12 (stereo unspecified)
3%	Cc1cc(C(=O)NC2CCCN(Cc3ccccc3F)C2)no1 (stereo unspecified)
?	O/N=C1\CCCC\C1=C/c1ccccc1
-4%	CCOc1ccc(OCc2cccc(C(=O)O)c2)cc1
2%	CC1(C)CC(=O)C2=C(C1)NC1=C(C(=O)c3ccccc31)C2c1ccccc1 (stereo unspecified)
-23%	O=C(N[C@@H](c1ccccc1)[C@@H]1C[C@H]1C(=O)O)OCc1ccccc1

Grouped by structure, those above containing bromine
VDR inh	mol
-20%	O=C(N/C(=C\c1ccc2c(c1)OCO2)C(=O)N1CCOCC1)c1ccccc1Br
-11%	O=C(c1ccccc1Br)N1CCN(c2ncccn2)CC1
-16%	O=C(OCc1nnc(-c2ccccc2)o1)C12CC3CC(CC(Br)(C3)C1)C2

Arranged by length of the SMILES (ascending): 14 of the compounds above.
VDR inh	mol
?	O/N=C1\CCCC\C1=C/c1ccccc1
11%	CC(C)C(=O)O/N=C(\N)c1ccccn1
-11%	O=S(=O)(c1ccccc1)N1CCC(=NO)CC1
-4%	CCOc1ccc(OCc2cccc(C(=O)O)c2)cc1
11%	O=c1c(-c2ccccc2)c(O)c2cccc3c2n1CCC3
4%	CN(C)Cc1c(O)ccc2occ(C(O)c3ccccc3)c12 (stereo unspecified)
6%	CCc1ccccc1NC(=O)C1CCCN(c2nccc(C)n2)C1 (stereo unspecified)
-11%	O=C(NCCN1CCCCC1)c1ccc(Oc2cc(Cl)cc(Cl)c2)o1
-2%	CCn1ncc(Cl)c1C(=O)Nc1cc([N+](=O)[O-])ccc1OC
-17%	CC1(c2nnc(-c3cccc(Cl)c3)o2)CC(c2ccc(F)cc2)=NO1 (stereo unspecified)
-16%	O=C(OCc1nnc(-c2ccccc2)o1)C12CC3CC(CC(Br)(C3)C1)C2
2%	CC1(C)CC(=O)C2=C(C1)NC1=C(C(=O)c3ccccc31)C2c1ccccc1 (stereo unspecified)
-23%	O=C(N[C@@H](c1ccccc1)[C@@H]1C[C@H]1C(=O)O)OCc1ccccc1
3%	CCOc1ccc(C(=O)c2oc3ccccc3c2NC(=O)c2cc(-c3ccccc3)on2)cc1

More structures.
VDR inh	mol
-16%	COc1ccc(CC(=O)N/N=C(\C)c2cccnc2)cc1OC
-3%	CCc1ccc(-c2nc3c(c(SCc4ccccc4F)n2)Cc2c(CO)cnc(C)c2O3)cc1
-13%	CN(CC(=O)NCc1ccccn1)S(=O)(=O)c1ccc(F)cc1
-3%	Fc1cc(F)c(F)c(SCn2cc(Br)cn2)c1F
-7%	CC(=O)N[C@H]1CSSC[C@@H](C(=O)N2CCC[C@H]2C(=O)N2CCC[C@H]2C(=O)N[C@@H](CCCCN)C(=O)N[C@@H](CC(=O)O)C(N)=O)NC(=O)CNC(=O)[C@H](Cc2c[nH]c3ccccc23)NC(=O)[C@H](CCCNC(=N)N)NC(=O)[C@@H](Cc2ccc(Cl)c(Cl)c2)NC(=O)[C@H](Cc2cnc[nH]2)NC(=O)[C@H](CCC(=O)O)NC1=O
-16%	CN(C)c1ccc(NS(=O)(=O)c2ccc(-c3csnn3)cc2)cc1
?	COc1ccc(OCCN(C)Cc2c(O)ccc3ccccc23)cc1
5%	COc1cccc2sc3cc(NCC[C@@H]4CCCN4C)ccc3c(=O)c12
1%	COc1ccc(OCCc2nnc(N)s2)cc1
2%	COCCCN(C(=O)Cc1ccc(S(=O)(=O)N2CCOCC2)s1)c1c(N)n(Cc2ccccc2)c(=O)[nH]c1=O
-1%	Cc1cc(C)c(C)c(S(=O)(=O)N2CCN(C(=O)c3cc(=O)[nH]c4ccccc34)CC2)c1C
-3%	Cc1ccc(Cl)cc1N1CCN(C(=O)c2ccc(CS(=O)(=O)c3ccc(Br)cc3)o2)CC1

(list continues)
VDR inh	mol
8%	O=C(Nc1ccc(Br)cc1)c1ccc(Br)c(S(=O)(=O)N2CCCCC2)c1
2%	CCOc1ccccc1CNC(=O)Nc1cn(CC(C)C)c(=O)c2ccccc12
-11%	O=C(NCc1ccccc1)c1cnc(-c2ccccn2)nc1C(F)(F)F
6%	COc1ccc(OC)c(CCNC(=O)CCn2nc(C)c3c(C)n(-c4ccccc4)nc3c2=O)c1
9%	O=c1[nH]n(-c2ccccc2)c(=O)cc1Cl
7%	CC(=O)N1C(=O)NC(c2ccccc2)=C([N+](=O)[O-])C1c1ccccc1 (stereo unspecified)
-4%&2%	COc1ccc(NC(=O)CN(C)S(=O)(=O)c2ccc3c(c2)CCCN3C(C)=O)cc1
-6%	CCC(=O)Nc1nc2c(s1)COc1ccccc1-2
-19%	COc1cc(C(=O)OCC(=O)c2ccc(S(=O)(=O)N3CCCCC3)cc2)cc(OC)c1OC
15%	CN1/C(=C\P(=O)(N(C)C)N(C)C)C(C)(C)c2ccccc21
-7%	CC(=O)N1c2ccc(S(=O)(=O)NCC3CCC(C(=O)NC4CCCCC4)CC3)cc2CC1C (stereo unspecified)
-19%	O=C(Oc1ccc(C(=S)N2CCOCC2)cc1)c1cccc(Cl)c1

Following part:
VDR inh	mol
-6%	COCc1cc(Sc2ccc(Cl)cc2)nc(-c2ccccc2)n1
0%	CN(C)c1ccc(C(=O)N/N=C/c2cc(Br)cc(Br)c2O)cc1
-7%	COc1ccc(N2C(=O)C3CCCN3C2c2ccc(C)o2)cc1Cl (stereo unspecified)
8%	Cc1ccc(CCNC(=O)c2ccc3nc(N4CCC(C)CC4)sc3c2)cc1
-27%	C=CCN1C=C(C(C)=O)C(=O)CC1
12%	CCOC(=O)Cc1csc(NC(=O)Nc2ccc(OC(F)(F)F)cc2)n1
-7%	COC(=O)c1cccc(CN2C(=O)SC(Nc3ccccc3C)C2=O)c1 (stereo unspecified)
2%	CC(C)CNC(=O)CN(c1ccccc1)S(=O)(=O)c1ccccc1[N+](=O)[O-]
8%	CN(C)CCCNCCCCNC(=O)/C=N/O
4%	Cc1ccccc1-n1ncc2c1CC(C)(C)CC2NC(=O)CCC1=NNC(=O)CC1 (stereo unspecified)
-9%	COCCNC(=O)C1Cc2cc(S(=O)(=O)N3CCCC3)ccc2N1C(C)=O (stereo unspecified)
-17%	O=C1NC(NS(=O)(=O)c2ccc(Cl)cc2)(C(F)(F)F)C(=O)N1CCc1ccccc1 (stereo unspecified)

(next part)
VDR inh	mol
4%	CCCn1nnnc1SCC(=O)c1ccc(NC(C)=O)cc1
-16%	c1ccc(Nc2ccc(-n3ccnc3)nn2)cc1
?	CCOC(=O)C1C(=O)N(C(=O)c2cncc(Br)c2)CC1c1ccccc1 (stereo unspecified)
1%&5%	O=C(NCCS(=O)(=O)N1CCN(c2ccc(F)cc2)CC1)C1CC(=O)N(c2ccccc2)C1 (stereo unspecified)
10%	C=CCOc1ccc(/C=C/C(C)=N\O)cc1
-4%	O=C(NCCc1ccc(Cl)cc1)C1CCCN(c2ncnc3c2nc2n3CCCCC2)C1 (stereo unspecified)
0%	CCn1c(=O)n(CC)c2cc(N3CCCC3)c(NC(=O)Nc3cc(C)cc(C)c3)cc21
-1%	Cc1ccc2nc(-c3ccsc3)c(Nc3ccc(C(C)C)cc3)n2c1
17%	O=C(CSCc1c(Cl)cccc1Cl)NCc1cccnc1
-14%	Cc1ccc(NC2=CC(=O)C(=O)c3ccccc32)cc1

Only part of the results is shown; count on the stated rates, not on these rows.
